VDR inh: blocks the human vitamin D receptor; P11473; VDR-SRC2-3 peptide fluorescence polarization, 2 h; Potency, µM, inactives show max response, negative = inhibition, hits mostly inhibitors; hit rate 0.93% among 400,000; active = well fitted inhibition curve with a large enough effect; inconclusive = small, poorly fitted or top-dose-only effect, or another doubt; inactive = no such curve, though single readings can be large or run the other way; note: series mostly up to about 120 µM
Target sequence (P11473 whole entry, looked up): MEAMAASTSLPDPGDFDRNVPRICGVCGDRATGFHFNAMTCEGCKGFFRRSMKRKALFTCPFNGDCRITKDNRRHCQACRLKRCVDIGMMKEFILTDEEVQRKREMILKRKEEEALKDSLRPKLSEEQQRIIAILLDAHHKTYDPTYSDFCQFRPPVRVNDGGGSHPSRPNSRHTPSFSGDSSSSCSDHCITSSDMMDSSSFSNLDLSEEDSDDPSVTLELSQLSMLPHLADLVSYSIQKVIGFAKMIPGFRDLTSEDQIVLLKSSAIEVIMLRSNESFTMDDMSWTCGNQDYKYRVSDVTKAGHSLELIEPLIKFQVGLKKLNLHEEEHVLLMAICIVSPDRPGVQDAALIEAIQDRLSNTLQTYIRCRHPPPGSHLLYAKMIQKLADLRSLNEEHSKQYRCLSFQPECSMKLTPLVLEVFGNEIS
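Measured by FP: displacement of SRC2-3 coactivator peptide from VDR by library compounds, following a two-hour ambient incubation.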
* = called active by the depositor; ? = inconclusive. % is set by controls: 0 for no effect and ±100 for the full control effect; potency is the fitted concentration of half-maximal effect. Some of the compounds tested; count on the stated rates, not on these rows.

SMILES | VDR inh
O=C1[C@@H]2Cc3c([nH]c4ccccc34)CN2C(=O)CN1CCO | 18%
CCCn1c(C)cc(C(=O)Cn2nnc3ccccc3c2=O)c1C | -16%
CC(C)(C)c1ccc(OCC(=O)N2CCN(c3ncccn3)CC2)cc1 | -15%
CCCCC(CC)CNC(=O)CC1Nc2c3ccccc3nc(=S)n2C1=O (stereo unspecified) | -7%
CCC[C@@H]1NC(=O)[C@@H](NC(C)=O)CSSC[C@@H](C(N)=O)NC(=O)CNC(=O)[C@H](Cc2c[nH]c3ccccc23)NC(=O)[C@H](CCCN=C(N)N)NC(=O)[C@H](Cc2ccc3ccccc3c2)NC(=O)[C@H](Cc2cnc[nH]2)NC(=O)[C@H](CCCN=C(N)N)NC1=O | -1%
CCCc1nn2c(=O)cc(COC(=O)c3ccc(NC(=O)COc4ccccc4)cc3)nc2s1 | 20%
C/C(=C\C1CCCCC1)C(NC(=O)c1ccc(C(F)(F)F)cc1)c1ccc(-c2ccccc2)cc1 (stereo unspecified) | -12%
Cc1cc(Br)ccc1NC(=O)CSc1c2c(nc3ccccc13)CCC2 | -16%
CCOc1ccc(N(CCC#N)S(=O)(=O)c2ccc(OC)cc2)cc1 | 1%
CN(C)CCCN(C(=O)c1nc2ccccc2s1)c1nc2ccc(F)cc2s1 | 13%
O=S(=O)(NCCC1=CCCCC1)c1ccc(Br)cc1 | -17%
Nn1c(SCC(=O)Nc2ccc3c(c2)CCC3)nnc1C1CC1 | -10%
CCCNC(=O)Cn1c(=O)oc2cc(S(=O)(=O)N3CCCC3)ccc21 | -18%
Cc1[nH]nc(-c2ccc(OCc3cnn(-c4ccccc4)c3)cc2O)c1Oc1ccccc1F | 8%
S=C(Nc1ccccc1)N1CCn2cccc2C1c1cccnc1 (stereo unspecified) | -4%
O=C(CCc1c[nH]c2ccccc12)NCCc1ccc(O)cc1 | -17%
O=C(CN1CCN(c2ncc(C(F)(F)F)cc2Cl)CC1)NC(=O)NCc1ccccc1 | -5%
CSCCC(NC(=O)c1ccco1)C(=O)NC1CCCCCC1 (stereo unspecified) | -22%
Cn1cc(Cl)c(C(=O)Nc2nccs2)n1 | -5%
COc1ccccc1N1CC(C(=O)Nc2nnc(SCC(=O)N3CCCC3)s2)CC1=O (stereo unspecified) | -6%
CC(=O)Nc1ccc(S(=O)(=O)Nc2nc3n(n2)C(c2ccccc2)C=C(c2ccc(Cl)cc2)N3)cc1 (stereo unspecified) | 5%
CC(=O)N1C(=O)/C(=C2\SC(=S)N(c3c(C)n(C)n(-c4ccccc4)c3=O)C2=O)c2ccccc21 | ?
CCCCN(N=Nc1nonc1OC)c1nonc1OC | 2%
COc1ccc(CCNC(=O)/C=C\c2ccccc2)cc1OC | 1%
COC(=O)c1cc(-c2ccc(OC)cc2)on1 | -6%

New compounds follow
SMILES | VDR inh
O=C(CN1C(=O)NC2(CCCC2)C1=O)OCCOc1ccc(Br)cc1 | -20%
CN1C(=O)CC(C(=O)Nc2ccc(C(=O)O)cc2)SC1=Nc1ccc(Cl)cc1 (stereo unspecified) | 0%
Cc1c(OCC(=O)N2C[C@H]3C[C@@H](C2)c2cccc(=O)n2C3)ccc2c3c(c(=O)oc12)CCC3 | 5%
Cc1ccc(NC(=O)NNC(=O)COc2ccc([N+](=O)[O-])cc2)cc1C | 3%
CC(=O)c1cccc(N(C(=O)c2cnccn2)C(C(=O)NCc2ccccc2)c2ccco2)c1 (stereo unspecified) | 4%
COc1ccc(C(=O)Nc2nc3cc(OC)c(OC)cc3c(=O)[nH]2)cc1 | 11%
CCc1c(O)nc(SCC(=O)Nc2ccc3c(c2)CCC3)[nH]c1=O | -4%
Cc1cccc(Cn2c(CN3CCC(C(=O)NCCc4ccccc4)CC3)cc3ccccc32)c1 | 7%
O=C(c1ccc(-n2cncn2)c([N+](=O)[O-])c1)N1CCN(S(=O)(=O)c2ccc(F)c(F)c2)CC1 | -22%
CCn1nc(C(=O)Nc2cc(Cl)ccc2-n2cncn2)c2ccccc2c1=O | -21%
O=C(c1cccnc1)N1CCCc2ccccc21 | -14%
O=C(Nc1ccc2c(c1)OCO2)C1CC1 | -10%
Cc1cc(NCC(c2ccccc2)c2ccccc2)n2ncnc2n1 | -6%
Cc1ccc(NC(=O)CCCc2nnc3n(C)c(=O)c4sccc4n23)cc1F | 9%
CN(C)c1ccc(CNC(=O)C2CCCN(S(=O)(=O)c3ccc4c(c3)oc(=O)n4C)C2)cc1 (stereo unspecified) | -23%
CC/C(C)=N/Nc1ccc(S(=O)(=O)N2CCCC2)cc1[N+](=O)[O-] | -15%
O=C(Nc1nnc(C2CCCC2)s1)C1CCC1 | 7%
CCCCCCCCCCCCCCCC(=O)OC[C@@H](COP(=O)([O-])OCC[N+](C)(C)C)OC(=O)CCCCCCCCCCCCCCC | 9%
COc1ccc(NC2=CC(c3ccccc3)N(c3ccc(OC)cc3)C2=O)cc1 (stereo unspecified) | ?
Cc1cccc(C)c1NC(=O)c1cccc(C(=O)Nc2c(C)cccc2C)n1 | -3%
COc1cnn(-c2cccc(C(F)(F)F)c2)c(=O)c1Cl | 10%
O=C1ON=C(c2ccccc2)/C1=C/c1ccccc1 | 45µM*
COCCNC(=O)CN(c1ccc(C)cc1)S(=O)(=O)c1ccccc1 | 13%
C=CC1=C2C=C(C3CC3)N(C3CC3)C=C2C(=O)C(C)(OC(=O)c2ccco2)C1=O (stereo unspecified) | -9%
COC(=O)c1ccccc1NC(=O)NCc1cccnc1 | -15%

(next part)
SMILES | VDR inh
Cc1noc(C)c1-c1nccc(-n2ccnc2)n1 | 5%
Cc1ccc(NC(=O)CCC(=O)N/N=C/c2cc([N+](=O)[O-])ccc2O)cc1 | 8%
CCC(=O)Nc1ccc(C(=O)COC(=O)CCN2C(=O)C3CC=CCC3C2=O)cc1 (stereo unspecified) | -14%
COc1ccccc1CNC(=O)CCn1nc(C)c2c(C)n(-c3ccccc3)nc2c1=O | 6%
Oc1ccccc1Cn1c(-c2ccccc2O)nc2ccccc21 | -14%
Cc1c[n+]([O-])ccc1Oc1ccc([N+](=O)[O-])cc1 | -6%
O=C1C2C(C(=O)N1CCN1CCN(Cc3ccc([N+](=O)[O-])cc3)CC1)[C@H]1C=C[C@@H]2C1 (stereo partly specified) | -5%
CC1CCCN(CCCNS(=O)(=O)c2ccc3c(c2)CCN3C(=O)C2CC2)C1 (stereo unspecified) | 10%
CNC(=O)CCSc1ccc(C)cc1 | 0%
C#Cc1ccc([C@H]2C=C(C(=O)O)O[C@@H](OCCCCO)C2)cc1 | 7%
CCN1CCCC1CNC(=O)c1ccc(Sc2ccccc2Cl)c([N+](=O)[O-])c1 (stereo unspecified) | -5%
Nc1nonc1C(=O)NCCN=Cc1cc(Cc2ccccc2)cc(Br)c1O | -7%
COc1ccccc1NC(=O)C1CCCN(S(=O)(=O)c2ccccc2)C1 (stereo unspecified) | -6%
O=c1c(-c2cc(F)cc(F)c2)nc2cnc(N3CCOCC3)nc2n1C1CC1 | -18%
CCOc1nc(NCCN2CCOCC2)nc(Nc2ccc([N+](=O)[O-])cc2)n1 | 3%
Cc1ccc(NC(=S)N(CCN(C)C)Cc2cc3cccc(C)c3[nH]c2=O)cc1 | -6%
CC(=O)Nc1ccc(S(=O)(=O)Nc2cccc(-c3cn4c(n3)SCC4)c2)cc1 | 2%
Cc1ccc(-c2c[nH]c(=S)n2-c2ccccc2)cc1 | -4%
CC12CN(C(=O)c3ccc([N+](=O)[O-])cc3)CC(C)(CN(C(=O)c3ccc([N+](=O)[O-])cc3)C1)C2=O | 1%
CCOc1ccc(S(=O)(=O)N(CC(=O)NCC2CCCO2)c2ccc(F)cc2)cc1 (stereo unspecified) | -7%
Cc1ccc(NC(=O)CSc2nnc(NC(=O)C3CC3)s2)cc1C | ?
c1coc(CSSCc2ccco2)c1 | 22µM*
COc1ccc(C(=O)NCCc2cn3ccccc3n2)cc1 | ?
O=C(CNC(=O)c1ccc(Br)cc1)N/N=C/c1ccc[nH]1 | -1%
O=C1c2ccccc2C(=O)N1CCc1ccccc1 | -22%

6 structures already listed, arranged by SMILES length, lowest first:
SMILES | VDR inh
CNC(=O)CCSc1ccc(C)cc1 | 0%
O=C1ON=C(c2ccccc2)/C1=C/c1ccccc1 | 45µM*
Nn1c(SCC(=O)Nc2ccc3c(c2)CCC3)nnc1C1CC1 | -10%
COCCNC(=O)CN(c1ccc(C)cc1)S(=O)(=O)c1ccccc1 | 13%
COc1ccc(NC2=CC(c3ccccc3)N(c3ccc(OC)cc3)C2=O)cc1 (stereo unspecified) | ?
COc1ccccc1CNC(=O)CCn1nc(C)c2c(C)n(-c3ccccc3)nc2c1=O | 6%

Further compounds follow.
SMILES | VDR inh
CC(Oc1ccccc1)C(=O)N=Nc1c(O)[nH]c2ccc([N+](=O)[O-])cc12 (stereo unspecified) | -11%
C/C(CCc1ccc2c(c1)OCO2)=N\N=C(/N)SC1CC(=O)N(c2ccc(Cl)cc2)C1=O (stereo unspecified) | -5%
CCOc1ccc(C(CCc2ccccc2)NC(=O)c2ccccc2OC)cc1OCC (stereo unspecified) | -4%
Cc1ccc(O)c(C2=Nc3ccccc3N=C(c3ccc([N+](=O)[O-])cc3)C2)c1 | 6%
Cc1cccc(-c2nsc(SCC(=O)c3ccc(Cl)cc3)n2)c1 | -10%
O=C(C(=Cc1ccc(F)cc1)c1ccccc1)c1ccc(O)cc1 | -28%
NC(=O)CSc1nc2ccccc2n1Cc1ccccc1 | -9%
N#Cc1cccc(-n2nnnc2-c2ccc3c(c2)OCO3)c1 | -10%
CC(=O)N1CCN(C(=O)c2ccc(NS(=O)(=O)c3cc(C)ccc3C)cc2)CC1 | 1%
O=C1N=C(c2ccccc2)S/C1=C\c1cccs1 | ?
Cc1sc(NC(=O)c2cccc(N3C(=O)CCC3=O)c2)nc1-c1ccccc1 | -13%
Cc1cc(NC(=O)CSc2nncn2-c2ccccc2)no1 | ?
CCOc1ccccc1OCC(=O)Nc1cc(C)on1 | -16%
COc1ccc2c(CC(=O)NCc3cccs3)coc2c1 | 7%
COC(=O)c1ccc(CSc2nncn2N)cc1 | 10%
CC(=O)Oc1ccc(CC(C(=O)O)N2C(=O)c3ccccc3C2=O)cc1 (stereo unspecified) | 19%
c1ccc(-c2noc(CN3CCN(c4cnccn4)CC3)n2)cc1 | -10%
O=C(COC(=O)/C=C/c1ccccc1)NC(=O)NC1CCCCC1 | 11%
CN(C)C(CNC(=O)c1cc(Br)ccc1Cl)c1ccco1 (stereo unspecified) | -6%
CCn1c(=NC(=O)c2ccc(S(=O)(=O)N3CCOCC3)cc2)sc2cccc(OC)c21 | -6%
Cc1c(Cl)cccc1NC(=O)N1CCN(C(=O)c2nsc3ccccc23)CC1 | 7%
CCC(=O)NCCc1nc2ccccc2n1CC | -9%
O=C(CSc1nc(=O)n(CCCN2CCOCC2)c2c1CCC2)Nc1cccc(F)c1 | 0%
O=C(CN1CCN(Cc2ccccc2)C1=O)NCc1cccs1 | -13%
COc1ccc2oc(=O)cc(CN3CCN(C(=O)c4ccccc4F)CC3)c2c1 | 14%

The list goes on.
SMILES | VDR inh
CC(NC(=O)CCN1C(=O)c2ccccc2C1=O)c1ccccc1 (stereo unspecified) | 3%
COc1cc(/C=N/NC(=S)N/N=C/c2cc(OC)c(OC)c(OC)c2)cc(OC)c1OC | -16%
CCOc1ccc(N2CC(C(=O)Nc3cccnc3)CC2=O)cc1 (stereo unspecified) | -20%
CCOc1ccc(C(=O)N2CCN(c3cccc(Cl)c3)CC2)cc1 | 1%
CC(=O)c1cn(CC(=O)NCC2CCCO2)c2ccccc12 (stereo unspecified) | -6%
COc1cccc(Cn2cnc3c(NS(=O)(=O)c4cccc(Cl)c4Cl)c(C)c(C)cc32)c1 | 18%
Cc1ccc(C)c(NC(=O)Cn2c(=O)n(CC3CCCO3)c(=O)c3ccccc32)c1 (stereo unspecified) | 14%
CCCn1c(N)c(C(=O)CSc2n[nH]c(-c3ccccc3F)n2)c(=O)n(C)c1=O | 12%
CSc1nnc(CSc2cc(C)nc(N(C)C)n2)o1 | ?
Cn1c(=O)c2c(nc(NCC(O)CO)n2CCc2ccccc2)n(C)c1=O (stereo unspecified) | -12%
CC(C(=O)Nc1ccccc1-c1ccccc1)N1CCOCC1 (stereo unspecified) | -2%
NS(=O)(=O)c1ccc(NC(=O)COc2ncnc3sccc23)cc1 | -7%
CC1=C(c2ccc(C)c(C)c2)S(=O)(=O)N=C1N1CCN(c2cccc(C(F)(F)F)c2)CC1 | 2%
Cc1cccc(NC(=S)NCCN(C2CCCCC2)C2CCCC2)c1 | -25%
CCCC(=O)Nc1cccc(NC(=S)NC(=O)C(C)Oc2ccc(Cl)cc2Cl)c1 (stereo unspecified) | -16%
Cc1nn(CCCC(=O)Nc2cccc(C(F)(F)F)c2)c(=O)c2nn(-c3ccccc3)c(C)c12 | 10%
CCN1CCN(Cc2ccc(NC(=O)c3cc(NC(=O)c4nccnc4N)cc(OC)c3)cc2C(F)(F)F)CC1 | 12%
COc1ccc(CCNC(=O)c2cnc(C)cn2)cc1 | 5%
CCOC(=O)N1CCN(C(=O)CCc2ccc(S(=O)(=O)NCCc3ccccc3)cc2)CC1 | 1%

Filtered by structure, the compounds so far with a thiophene ring, fused or not (5)
SMILES | VDR inh
Cc1ccc(NC(=O)CCCc2nnc3n(C)c(=O)c4sccc4n23)cc1F | 9%
O=C1N=C(c2ccccc2)S/C1=C\c1cccs1 | ?
COc1ccc2c(CC(=O)NCc3cccs3)coc2c1 | 7%
O=C(CN1CCN(Cc2ccccc2)C1=O)NCc1cccs1 | -13%
NS(=O)(=O)c1ccc(NC(=O)COc2ncnc3sccc23)cc1 | -7%

Some of these compounds in order of the VDR inh value, rising.
SMILES | VDR inh
CN(C)C(CNC(=O)c1cc(Br)ccc1Cl)c1ccco1 (stereo unspecified) | -6%
O=C(CSc1nc(=O)n(CCCN2CCOCC2)c2c1CCC2)Nc1cccc(F)c1 | 0%
COC(=O)c1ccc(CSc2nncn2N)cc1 | 10%
O=C(COC(=O)/C=C/c1ccccc1)NC(=O)NC1CCCCC1 | 11%

High-throughput results (PubChem BioAssay)
